Sa growth inh: blocks Staphylococcus aureus growth. relative growth, % (test concentration not listed). 0.53% of 170,000 active. S. aureus RN4220 growth, OD600, 20 h, 42 °C; stronger effect = lower value;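 active = growth at 42 °C up to 50% and 20 or more points under that at 30 °C, or under 10% at both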;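 also: 300 nL library stock went into each well; scaled to the means of positive and negative controls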
HCMV UL50-53 inh: cytomegalovirus nuclear egress complex inhibition. HTRF UL50-UL53 interaction, normalized percent inhibition. inhibition, % (no concentration beside the values). AID 1918969. 0.15% of 190,000 active;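 active = both replicates at 50% or more, plus weaker picks with an unusually low signal ratio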;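 also: stock transfer was 100 nL into about 20 µL; 0% = negative control wells and 100% = wells with untagged competitor protein; inactives centre near -12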
GIV Gai3 FP: blocks GIV peptide binding to rat Galpha-i3; percent of control (FP), % (concentration not given with the values); 0.42% of 210,000 active; Galpha-i3/FITC-GIV peptide fluorescence polarization, 90 min; stronger effect = lower value; scaled: aluminum fluoride 0%, vehicle 100%; P08753;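 active = replicate mean at 85% of control or lower, very high polarization wells dropped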;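 also: wells of about 15 µL received 100 nL stock; the first replicate is given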
Target sequence (P08753 whole entry, looked up): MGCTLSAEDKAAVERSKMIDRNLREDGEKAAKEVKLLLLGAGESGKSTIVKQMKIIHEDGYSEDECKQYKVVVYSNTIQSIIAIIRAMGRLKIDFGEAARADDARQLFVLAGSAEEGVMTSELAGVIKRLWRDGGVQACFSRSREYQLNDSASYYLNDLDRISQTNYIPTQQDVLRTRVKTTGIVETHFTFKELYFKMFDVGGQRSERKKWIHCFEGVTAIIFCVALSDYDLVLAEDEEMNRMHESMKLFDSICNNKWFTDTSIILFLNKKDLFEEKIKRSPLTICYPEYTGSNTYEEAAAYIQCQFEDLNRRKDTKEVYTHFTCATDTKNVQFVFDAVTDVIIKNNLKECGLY
Sa growth inh second temp: recorded beside Sa growth inh, whose call it bears; relative growth, %; measured here: growth at 30 °C;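 optical density after 20 h as mean of two plates; 100% = untreated growth and lower means inhibition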
Numbers without * were called inactive.

`O=C1c2cccnc2C(=O)N1c1ccc2c(c1)OCO2` gave Sa growth inh 98, HCMV UL50-53 inh -28, GIV Gai3 FP 99 and Sa growth inh second temp 80.
`CC(C)n1cc(C(=O)O)c(=O)c2ccccc21` gave Sa growth inh 77, HCMV UL50-53 inh -36, GIV Gai3 FP 107 and Sa growth inh second temp 77.
`CCOc1ccc2nc(NC(=O)C3CCN(S(=O)(=O)c4cn(C)c(C)n4)CC3)sc2c1` gave HCMV UL50-53 inh -2 and GIV Gai3 FP 100.
COc1ccc(Cl)cc1NC(=O)CSc1nc2ccccc2[nH]1 was read as HCMV UL50-53 inh 13 and GIV Gai3 FP 111.
Screening O=C(NCc1ccc(F)cc1)c1ccncc1 returned Sa growth inh 115, HCMV UL50-53 inh -13, GIV Gai3 FP 106 and Sa growth inh second temp 101.
`CC1CCCC(C)N1S(=O)(=O)c1ccc(NC(=O)CCn2cnc3ccccc3c2=O)cc1` (configuration not stated) gave Sa growth inh 94, HCMV UL50-53 inh -1, GIV Gai3 FP 106 and Sa growth inh second temp 100.
For Cc1cc(N2CCOCC2)nc2ccccc12 the results were HCMV UL50-53 inh -15 and GIV Gai3 FP 103.
For O=C(COc1ccccc1)N1CCN(C(=O)COc2ccccc2)CC1 the results were Sa growth inh 92, HCMV UL50-53 inh -6 and Sa growth inh second temp 91.
Cc1ccc(NC2C=CS(=O)(=O)C2)cc1 (configuration not stated) was read as Sa growth inh 109, GIV Gai3 FP 104 and Sa growth inh second temp 82.
Screening Cc1cc(C)cc(NC(=O)CC(C)n2nc(C)cc2C)c1 (configuration not stated) returned Sa growth inh 82, GIV Gai3 FP 100 and Sa growth inh second temp 96.
`CCOc1cc(C2C(C(=O)OC3CCCCC3)=C(C)NC3=C2C(=O)CC(C)(C)C3)ccc1OC(C)=O` (configuration not stated) gave HCMV UL50-53 inh -16 and GIV Gai3 FP 101.
Cc1ccc(N=C2CCCN2Cc2ccccc2)c(C#N)c1 was read as Sa growth inh 97, HCMV UL50-53 inh 16, GIV Gai3 FP 104 and Sa growth inh second temp 105.
Screening COc1ccc2c(-c3ccccc3)cc(=O)[nH]c2c1 returned Sa growth inh 87, HCMV UL50-53 inh 7 and Sa growth inh second temp 89.
For COc1cccc(NC(=O)CCc2nnc3n(CC(C)C)c(=O)c4ccccc4n23)c1 the results were Sa growth inh 88, HCMV UL50-53 inh -36, GIV Gai3 FP 103 and Sa growth inh second temp 87.
Screening Cc1noc(C)c1C(=O)NCC(c1ccccc1Cl)c1c[nH]c2ccccc12 (configuration not stated) returned Sa growth inh 96, HCMV UL50-53 inh -4 and Sa growth inh second temp 78.
Screening CCN1C(=O)CCc2cc(NS(=O)(=O)c3ccc(Cl)cc3)ccc21 returned HCMV UL50-53 inh -24 and GIV Gai3 FP 102.
O=C(NCc1ccco1)Nc1ccccc1 was read as Sa growth inh 115, HCMV UL50-53 inh -28, GIV Gai3 FP 104 and Sa growth inh second temp 87.
CC(=O)Nc1sc2c(c1CN(C)C)CCCC2 was read as Sa growth inh 99, HCMV UL50-53 inh -11 and Sa growth inh second temp 93.
O=C(NC1CC1)c1ccccc1SCc1ccc(F)cc1 was read as Sa growth inh 95, HCMV UL50-53 inh -1 and Sa growth inh second temp 96.
Screening O=C(O)c1ccccc1C(=O)Nc1ccc(C(F)(F)F)cn1 returned Sa growth inh 114, HCMV UL50-53 inh 7, GIV Gai3 FP 105 and Sa growth inh second temp 93.
Nc1ccccc1C(=O)NCc1ccccc1 was read as Sa growth inh 107, HCMV UL50-53 inh -23 and Sa growth inh second temp 91.
`Cc1cnc(NC(=O)c2ccc3c(c2)OCO3)s1` gave Sa growth inh 116, HCMV UL50-53 inh -16, GIV Gai3 FP 102 and Sa growth inh second temp 81.
Screening CCCCOC(=O)c1ccc(NS(=O)(=O)c2c(C)nc3scc(C)n3c2=O)cc1 returned Sa growth inh 103, HCMV UL50-53 inh -6, GIV Gai3 FP 103 and Sa growth inh second temp 90.
O=C(NCc1ccc(Br)cc1)C1CCN(c2ccc(-c3ccccc3)nn2)CC1 was read as HCMV UL50-53 inh -36 and GIV Gai3 FP 95.
Screening CCOc1cc(S(=O)(=O)N2CCC(c3nc4ccccc4s3)CC2)c(OCC)cc1S(=O)(=O)N1CCOCC1 returned Sa growth inh 122, HCMV UL50-53 inh -9, GIV Gai3 FP 101 and Sa growth inh second temp 97.
`COc1ccc(C2C(C#N)=C(C(C)(C)C)Nc3ncnn32)cc1` (configuration not stated) gave Sa growth inh 79, HCMV UL50-53 inh -7, GIV Gai3 FP 98 and Sa growth inh second temp 86.
COc1cccc(-n2c3c(c(SCc4ccccc4)nc2=O)CCC3)c1 was read as HCMV UL50-53 inh -15 and GIV Gai3 FP 106.
Cc1ccc(C(=O)OCc2ccco2)cc1 was read as Sa growth inh 105, HCMV UL50-53 inh -29, GIV Gai3 FP 107 and Sa growth inh second temp 100.
For COc1cccc2[nH]c(C(=O)NCc3ccc4c(c3)CCN4C(=O)c3ccc(F)cc3)cc12 the results were Sa growth inh 114, GIV Gai3 FP 106 and Sa growth inh second temp 82.
`COc1ccc(N2CCN(Cc3ccc(C)o3)CC2)cc1` gave Sa growth inh 105, HCMV UL50-53 inh -13, GIV Gai3 FP 104 and Sa growth inh second temp 76.
O=C(O)c1cccc(Oc2cccc(C(F)(F)F)c2)c1 was read as Sa growth inh 118, HCMV UL50-53 inh -6 and Sa growth inh second temp 97.
`Cc1oc2c(c1C(=O)NCc1cccc(Br)c1)C1=NCCN1C=N2` gave Sa growth inh 82, GIV Gai3 FP 100 and Sa growth inh second temp 89.
`Cc1ccc(C)n1-c1ccc(C(=O)NN)s1` gave Sa growth inh 133, HCMV UL50-53 inh -6 and Sa growth inh second temp 102.
Cc1cc2oc(=O)cc(COC(=O)C3CC3)c2cc1Cl was read as Sa growth inh 88, HCMV UL50-53 inh -12 and Sa growth inh second temp 88.
Screening Clc1ccc(OCc2ccsc2Cn2cccc2)cc1 returned Sa growth inh 96, HCMV UL50-53 inh -19, GIV Gai3 FP 110 and Sa growth inh second temp 95.
For CSc1nnc(-c2ccc(Br)s2)n1C the results were Sa growth inh 113, HCMV UL50-53 inh -15, GIV Gai3 FP 103 and Sa growth inh second temp 83.
For O=C(O)CN1C(=O)CC(c2ccccc2)Sc2ccccc21 (configuration not stated) the results were Sa growth inh 105, HCMV UL50-53 inh -1, GIV Gai3 FP 104 and Sa growth inh second temp 96.
For CN(c1ccc(C(=O)NCc2cccnc2)cc1)S(C)(=O)=O the results were Sa growth inh 109, HCMV UL50-53 inh -8, GIV Gai3 FP 103 and Sa growth inh second temp 83.
COc1cc(NC(=O)c2ccccc2)c(OC)cc1NCC(=O)Nc1ccc2c(c1)OCCO2 was read as Sa growth inh 84, HCMV UL50-53 inh -21 and Sa growth inh second temp 82.
`CCNC(=O)N1CCc2cc(S(=O)(=O)NC3CC3)ccc21` gave HCMV UL50-53 inh -8 and GIV Gai3 FP 99.
`CC(=O)NC(=O)c1cc2cc(Br)ccc2oc1=Nc1ccccc1F` gave HCMV UL50-53 inh 6 and GIV Gai3 FP 107.
`Cc1cc(C)nc(NS(=O)(=O)c2ccc(NC(=S)NC(=O)c3ccc(Cl)cc3Cl)cc2)n1` gave HCMV UL50-53 inh -18 and GIV Gai3 FP 103.
Screening O=C(c1ccc(S(=O)(=O)N2CCOCC2)cc1)N1CCC(CN2C(=O)c3cccc4cccc(c34)C2=O)CC1 returned HCMV UL50-53 inh -21 and GIV Gai3 FP 101.
For C=CCNC(=O)C1CC(=O)N(C2CCCCCC2)C1 (configuration not stated) the results were Sa growth inh 100, HCMV UL50-53 inh 4, GIV Gai3 FP 107 and Sa growth inh second temp 96.
For S=C1NC2=C(C(c3ccc(Br)cc3)N1)N1CCC2CC1 (configuration not stated) the results were Sa growth inh 97, HCMV UL50-53 inh 8, GIV Gai3 FP 102 and Sa growth inh second temp 92.
C(=NCCCN1CCOCC1)c1ccc2c(c1)OCO2 was read as Sa growth inh 116, HCMV UL50-53 inh -13, GIV Gai3 FP 103 and Sa growth inh second temp 113.
COc1ccc(/C=C(\C#N)C(=O)ONC2=NCCCCC2)cc1 was read as Sa growth inh 89, HCMV UL50-53 inh -16 and Sa growth inh second temp 90.
COc1ccc(-c2nc(CCNC(=O)C(C)Oc3cc(C)cc(C)c3)cs2)cc1 (configuration not stated) was read as HCMV UL50-53 inh -26 and GIV Gai3 FP 98.
`CN(C)S(=O)(=O)c1ccc(C(=O)Nc2nnc(C3CC3)o2)cc1` gave Sa growth inh 79, HCMV UL50-53 inh -8, GIV Gai3 FP 106 and Sa growth inh second temp 60.
For COCCNC(=O)c1cc(-c2ccccc2O)no1 the results were Sa growth inh 115, HCMV UL50-53 inh 14, GIV Gai3 FP 101 and Sa growth inh second temp 100.
`Brc1cncc(Br)c1` gave Sa growth inh 95, HCMV UL50-53 inh 1 and Sa growth inh second temp 100.
`CC1CCC(NC(=O)C2CCC(=O)N2S(=O)(=O)c2ccc(F)cc2)CC1` (configuration not stated) gave HCMV UL50-53 inh -1 and GIV Gai3 FP 108.
For CC1CN(Cn2c(=S)oc3ccccc32)CC(C)O1 (configuration not stated) the results were Sa growth inh 96, HCMV UL50-53 inh -44 and Sa growth inh second temp 89.
COc1ccc2[nH]cc(CCN=C(NC(=O)c3cccc(Cl)c3)Nc3nc(C)cc(C)n3)c2c1 was read as Sa growth inh 97, HCMV UL50-53 inh -15, GIV Gai3 FP 104 and Sa growth inh second temp 91.
`Fc1ccc(-c2cn3c4ccccc4n(CCN4CCOCC4)c3n2)cc1` gave HCMV UL50-53 inh 8 and GIV Gai3 FP 100.
`O=C(CSc1nc(=O)[nH]c2c1CCCC2)NCc1ccc(F)cc1` gave Sa growth inh 118, GIV Gai3 FP 101 and Sa growth inh second temp 92.
COc1ccc2[nH]c(S(=O)Cc3ncc(C)c(OC)c3C)nc2n1 (configuration not stated) was read as Sa growth inh 94, HCMV UL50-53 inh -28, GIV Gai3 FP 97 and Sa growth inh second temp 80.
For NNC(=O)CCc1ccc(O)cc1 the results were Sa growth inh 97, HCMV UL50-53 inh -9, GIV Gai3 FP 107 and Sa growth inh second temp 94.
CCC1Oc2ccc(C)cc2N(CC(=O)Nc2ccc3c(c2)OCCO3)C1=O (configuration not stated) was read as Sa growth inh 94, HCMV UL50-53 inh 12, GIV Gai3 FP 104 and Sa growth inh second temp 111.
Screening COc1ccc(C)cc1NC(=O)c1ccc2c(SCC(=O)O)c3c(nc2c1)CCCC3 returned Sa growth inh 96, HCMV UL50-53 inh -33, GIV Gai3 FP 103 and Sa growth inh second temp 83.
O=C1CC2(O)CCC1(c1ccccc1)CC2 was read as Sa growth inh 105, HCMV UL50-53 inh -4, GIV Gai3 FP 100 and Sa growth inh second temp 125.
Screening COc1cc2c(=O)n(Cc3ccccc3)c(=O)n(CC(=O)N3CC(C)CC(C)C3)c2cc1OC (configuration not stated) returned Sa growth inh 114, HCMV UL50-53 inh -3, GIV Gai3 FP 101 and Sa growth inh second temp 89.

Filtered by structure: the entries above with an aryl methoxy group (14)
COc1ccc(Cl)cc1NC(=O)CSc1nc2ccccc2[nH]1 was read as HCMV UL50-53 inh 13 and GIV Gai3 FP 111.
Screening COc1ccc2c(-c3ccccc3)cc(=O)[nH]c2c1 returned Sa growth inh 87, HCMV UL50-53 inh 7 and Sa growth inh second temp 89.
For COc1cccc(NC(=O)CCc2nnc3n(CC(C)C)c(=O)c4ccccc4n23)c1 the results were Sa growth inh 88, HCMV UL50-53 inh -36, GIV Gai3 FP 103 and Sa growth inh second temp 87.
`COc1ccc(C2C(C#N)=C(C(C)(C)C)Nc3ncnn32)cc1` (configuration not stated) gave Sa growth inh 79, HCMV UL50-53 inh -7, GIV Gai3 FP 98 and Sa growth inh second temp 86.
COc1cccc(-n2c3c(c(SCc4ccccc4)nc2=O)CCC3)c1 was read as HCMV UL50-53 inh -15 and GIV Gai3 FP 106.
For COc1cccc2[nH]c(C(=O)NCc3ccc4c(c3)CCN4C(=O)c3ccc(F)cc3)cc12 the results were Sa growth inh 114, GIV Gai3 FP 106 and Sa growth inh second temp 82.
`COc1ccc(N2CCN(Cc3ccc(C)o3)CC2)cc1` gave Sa growth inh 105, HCMV UL50-53 inh -13, GIV Gai3 FP 104 and Sa growth inh second temp 76.
COc1cc(NC(=O)c2ccccc2)c(OC)cc1NCC(=O)Nc1ccc2c(c1)OCCO2 was read as Sa growth inh 84, HCMV UL50-53 inh -21 and Sa growth inh second temp 82.
COc1ccc(/C=C(\C#N)C(=O)ONC2=NCCCCC2)cc1 was read as Sa growth inh 89, HCMV UL50-53 inh -16 and Sa growth inh second temp 90.
COc1ccc(-c2nc(CCNC(=O)C(C)Oc3cc(C)cc(C)c3)cs2)cc1 (configuration not stated) was read as HCMV UL50-53 inh -26 and GIV Gai3 FP 98.
COc1ccc2[nH]cc(CCN=C(NC(=O)c3cccc(Cl)c3)Nc3nc(C)cc(C)n3)c2c1 was read as Sa growth inh 97, HCMV UL50-53 inh -15, GIV Gai3 FP 104 and Sa growth inh second temp 91.
COc1ccc2[nH]c(S(=O)Cc3ncc(C)c(OC)c3C)nc2n1 (configuration not stated) was read as Sa growth inh 94, HCMV UL50-53 inh -28, GIV Gai3 FP 97 and Sa growth inh second temp 80.
Screening COc1ccc(C)cc1NC(=O)c1ccc2c(SCC(=O)O)c3c(nc2c1)CCCC3 returned Sa growth inh 96, HCMV UL50-53 inh -33, GIV Gai3 FP 103 and Sa growth inh second temp 83.
Screening COc1cc2c(=O)n(Cc3ccccc3)c(=O)n(CC(=O)N3CC(C)CC(C)C3)c2cc1OC (configuration not stated) returned Sa growth inh 114, HCMV UL50-53 inh -3, GIV Gai3 FP 101 and Sa growth inh second temp 89.

Compound activity as filed in PubChem BioAssay.
